DT40 TDP1 CPT: DT40-hTDP1 cell growth loss with CPT. Potency, µM (highest dose often 46.2 µM), inactives show at the highest dose activity change, negative = growth inhibition, most hits filed as inhibitors. chicken DT40 Tdp1-/-;hTDP1 cells + 20 nM CPT, ATP luminescence, 48 h. 420,000 compounds, 12% hits. AID 686979; also: nearly all actives have a fitted effect of over 55% in size
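Chicken DT40 Tdp1-/- cells stably complemented with human TDP1 were seeded at 400 cells/well in medium containing 20 nM camptothecin, exposed to pin-transferred compounds, and grown at 37 °C for at least 48 hr. Viability was read as ATP luminescence.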
N370S GC mod: inhibits or activates N370S mutant glucocerebrosidase. Potency, µM (titrated, usually from 59.4 µM), without a hit: at the top dose activity change, negative = inhibition, usual class: inhibitors. 330,000 compounds, 0.092% hits. N370S GC spleen homogenate, 4MU-glucoside fluorescence;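 also: 0% = full enzyme activity and -100% = no enzyme basal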
An asterisk follows results filed as active; ? = inconclusive; · = not tested or not shown; & = joins results of further samples. Calls follow the shape of the dose curve; as a rule, active = well fitted curve in the direction sought with a large enough effect; inconclusive = small, poorly fitted or top-dose-only effect, or another doubt; inactive = no such curve, though single readings can be large; an effect the other way counts as inactive or inconclusive. Unless noted, % is scaled to controls: 0 for no effect and ±100 for the full control effect; potency is read from the fitted curve at half-maximal effect. This is a subset, and most or all hits are left out here.

(1) Cn1ccs/c1=N\S(=O)(=O)c1ccc(C(C)(C)C)cc1
(2) CCC(C)NS(=O)(=O)c1ccc(NC(=O)c2ccc([N+](=O)[O-])cc2Cl)cc1 (stereo not given)
(3) Cc1ccc(C(c2nnnn2CCc2ccccc2)N2CCC(C)CC2)cc1 (stereo not given)
(4) C(=N\Nc1nc(-c2ccccn2)nc2ccccc12)/c1ccccc1
(5) CCOc1ccc(/C=C/C2=NNC(=O)CC2)cc1
(6) COc1ccc(C(=O)COC(=O)CNC(=O)c2cccc(OC(F)F)c2)cc1

compound no.,1,2,3,4,5,6
DT40 TDP1 CPT,-3%,9%,?,·,3%,1%
N370S GC mod,0%,-9%,-2%,11%,-12%,0%

Entries of single compounds, quoted from the list:
Cn1ccs/c1=N\S(=O)(=O)c1ccc(C(C)(C)C)cc1 in the list: DT40 TDP1 CPT: -3%; N370S GC mod: 0%
CCC(C)NS(=O)(=O)c1ccc(NC(=O)c2ccc([N+](=O)[O-])cc2Cl)cc1 (stereo not given) in the list: DT40 TDP1 CPT: 9%; N370S GC mod: -9%
C(=N\Nc1nc(-c2ccccn2)nc2ccccc12)/c1ccccc1 in the list: DT40 TDP1 CPT: ·; N370S GC mod: 11%

Continuation.
(7) CCOc1ccccc1OCC(=O)Oc1ccc(C)c(C)c1
(8) COCCNC(=O)[C@@]1(C)C=C[C@@H](Cc2ccccc2)N1C(=O)c1ccccc1
(9) Cc1nn(CC(=O)Nc2ccc(N3CCOCC3)cc2)c(C)c1Br
(10) CCCCN(C)C(=O)CCCCn1c(=O)[nH]c2cc(OCC)c(OCC)cc2c1=O
(11) CCOC(=O)c1sc(-c2ccccc2)cc1NC(=O)c1ccc(S(=O)(=O)N(CCOC)CCOC)cc1
(12) CCCC1C(=O)N2C(N(C)C)=Nc3ccc(C)cc3N2C1=O (stereo not given)

compound no.,7,8,9,10,11,12
DT40 TDP1 CPT,4%,?,-9%,?,-21%,-8%
N370S GC mod,-3%,-6%&-4%,-41%,24%,7%,-14%

(13) Cc1ccc(OCC(=O)NNC(=O)c2cc3ccccc3o2)cc1
(14) O=C(c1ccccc1)N1CCC(O)(c2ccc3c(c2)OCO3)CC1
(15) Cc1cc(NC(=O)c2c(-c3c(F)cccc3Cl)noc2C)no1
(16) O=C(Nc1ccccn1)c1csc2c1CCCC2
(17) O=C(NCCCC1CCCC1)C1CCC(=O)N(Cc2ccccc2F)C1 (stereo not given)
(18) O=C(CC(C(=O)N1CCc2ccccc21)n1ccnc1)N1CCc2ccccc2C1 (stereo not given)

compound no.,13,14,15,16,17,18
DT40 TDP1 CPT,-1%,?,-11%,3%,-4%,?
N370S GC mod,3%,5%,11%,6%,·,-1%

Compounds 16–18 of the list above:
(16) O=C(Nc1ccccn1)c1csc2c1CCCC2
(17) O=C(NCCCC1CCCC1)C1CCC(=O)N(Cc2ccccc2F)C1 (stereo not given)
(18) O=C(CC(C(=O)N1CCc2ccccc21)n1ccnc1)N1CCc2ccccc2C1 (stereo not given)

compound no.,16,17,18
DT40 TDP1 CPT,3%,-4%,?
N370S GC mod,6%,·,-1%

(more compounds)
(19) COc1ccccc1NC(=S)NCCc1ccc(S(N)(=O)=O)cc1
(20) Cc1ccccc1OCC(=O)OCC(=O)NC1CCCCCC1
(21) COc1cc(-c2n[nH]c(=S)n2-c2cccc(C(F)(F)F)c2)cc(OC)c1OC
(22) COc1cccc(CN2CC(C(=O)N3CCCO3)CCC2=O)c1 (stereo not given)
(23) CN1CCN(c2ccc(S(=O)(=O)N3CCOCC3)cc2)CC1
(24) CCn1c(SCC(=O)Nc2ccc(C(C)=O)cc2)nnc1C1CC1

compound no.,19,20,21,22,23,24
DT40 TDP1 CPT,4%,-13%,-8%,-13%,2%,-7%
N370S GC mod,-13%,-2%,9%,-3%,4%,-13%

(25) O=C1CSC(=S)N1N=C1CCCCCC1
(26) Cc1ccc2c(c1)nnn2C1CCN(C(=O)C23CC4CC(CC(C4)C2)C3)CC1
(27) COc1cccc(NC(=O)c2cn(C)c(=O)c3cc(OC)c(OC)cc23)c1
(28) CC(C)COP(=O)(c1ccc(N(C)C)cc1)C(O)c1ccccc1F (stereo not given)
(29) Cc1cc2cc(CNC(=O)c3ccc(S(=O)(=O)N4CCCC4)cc3)ccc2n1C
(30) CC(C)CNC(=O)c1ccc(C2SCC(=O)N2Cc2ccccc2)cc1 (stereo not given)

compound no.,25,26,27,28,29,30
DT40 TDP1 CPT,-8%,?,8.2µM*,-19%,?,?
N370S GC mod,10%,?,6%,8%,-8%,-22%

Random excerpt: two compounds from above
(30) CC(C)CNC(=O)c1ccc(C2SCC(=O)N2Cc2ccccc2)cc1 (stereo not given)
(28) CC(C)COP(=O)(c1ccc(N(C)C)cc1)C(O)c1ccccc1F (stereo not given)

compound no.,30,28
DT40 TDP1 CPT,?,-19%
N370S GC mod,-22%,8%

Continued:
(31) Cc1c(Cl)cccc1NC(=O)C(=O)NNC(=O)c1ccccc1F
(32) Cc1ccc(CSc2nnc(-c3ccncc3)n2C)cc1
(33) CCCCCn1ccc(=N)cc1
(34) Cc1nc2oc3ccc(F)cc3c(=O)c2cc1C(=O)NC(C)(C)C
(35) C/C(=N/NC(=O)c1ccc2nc[nH]c2c1)c1cccs1
(36) NS(=O)(=O)c1ccc(CCNC(=O)Cn2c(=O)c3cccn3c3cccnc32)cc1

compound no.,31,32,33,34,35,36
DT40 TDP1 CPT,?,-14%,9.2µM*,2%,-13%,1%
N370S GC mod,1%,-8%,4%,-19%,-11%,0%

(37) CCCCn1nnc(NC(=O)CC23CC4CC(CC(C4)C2)C3)n1
(38) O=C(O)CCC(=O)Nc1ccccc1C(=O)Nc1ccccc1
(39) O=C(CC1Sc2ccccc2NC1=O)OC(C(=O)NCCc1ccccc1)c1cccnc1 (stereo not given)
(40) COc1ccccc1-c1cc(C(F)(F)F)nc(S(=O)(=O)CCCC(=O)N2CCCCC2C)n1 (stereo not given)
(41) CCN(CC)C(=O)C1CCN(S(=O)(=O)c2cccc3nonc23)CC1
(42) O=C(O)c1ccc(Oc2ccc(S(=O)(=O)c3ccc(C(=O)O)c(C(=O)O)c3)cc2)cc1

compound no.,37,38,39,40,41,42
DT40 TDP1 CPT,-26%,-1%,-2%,4.1µM*,-14%,2%
N370S GC mod,14%,?,8%,2%,2%,0%

(43) CC(C)(C)C(=O)Nc1ccc(-c2nc3ccccc3c(=O)o2)cc1
(44) CC(C)(CO)NCc1c(OCc2ccc(Cl)cc2)ccc2ccccc12
(45) Cc1cc(C)cc(NC(=O)CC2Oc3ccc(C)cc3NC2=O)c1 (stereo not given)
(46) Cc1cc(NC(=O)COC(=O)c2cc3c(s2)CCC(C)C3)no1 (stereo not given)
(47) CCCc1nnc(NC(=O)COc2ccc3c(c2)OCO3)s1
(48) COc1ccc(NC(=O)CN(c2ccc(OC)c(Cl)c2)S(=O)(=O)c2ccccc2)cc1

compound no.,43,44,45,46,47,48
DT40 TDP1 CPT,3%,?,1%,?,5%,?
N370S GC mod,-2%,-22%,-5%,6%,0%,-7%

(49) CC(=O)N1CCc2cc(Br)cc(S(=O)(=O)NCCCN(C)Cc3ccccc3)c21
(50) COCC(=O)NC1CCCCCC1
(51) CCOc1ccc(N/C(=N/c2nc(C)cc(C)n2)NC(C)=O)cc1
(52) CCCCn1c(N)c(N(Cc2ccccc2OC)C(=O)COc2ccccc2C#N)c(=O)[nH]c1=O
(53) COc1ccc(NC(=O)CSCC(=O)Nc2ccccc2N2CCCC2)cc1
(54) CC1=CCC2C(=O)N(c3ccc(C)cc3)C(=O)C2C1 (stereo not given)

compound no.,49,50,51,52,53,54
DT40 TDP1 CPT,0%,8%,-15%,-14%,-21%,-20%
N370S GC mod,10%,6%,6%,3%,1%,13%

(55) Cc1ccc(S(=O)(=O)NNC(=O)CC#N)cc1
(56) CCc1cc2c(NC(Cc3ccccc3)C(=O)O)ncnc2s1 (stereo not given)
(57) CC(=O)c1cccc(NC(=O)CCC(=O)Oc2ccc(C)cc2)c1
(58) CN(CC(=O)NCc1ccco1)S(=O)(=O)c1ccc2c(c1)n(C)c(=O)c(=O)n2C
(59) CCOc1ccc(NC(=O)[C@@H]2CCC(=O)N2C2OC(=O)c3ccccc32)cc1 (stereo not given in full)
(60) Cc1nc(NCc2ccco2)c(C#N)c2c1COC(C)(C)C2

compound no.,55,56,57,58,59,60
DT40 TDP1 CPT,-21%,-4%,1%,-15%,15%,-7%
N370S GC mod,-1%,-2%,-5%,4%,-2%,14%

(61) Cc1c(NC(=O)C(=O)/C=C(/O)c2ccccc2)c(=O)n(-c2ccccc2)n1C
(62) COc1cc(NC(=O)CN2CCN(Cc3ccc4c(c3)OCO4)CC2)cc(OC)c1
(63) O=C(O)CC(NC(=O)C12CC3CC(CC(C3)C1)C2)c1ccc2c(c1)OCO2 (stereo not given)
(64) Cc1cc(-c2n[nH]c(=S)n2/N=C/c2cccc(O)c2)n[nH]1
(65) CN(C)/C=C/C(=O)c1ccc(Oc2ccccc2)cc1
(66) C/C(=C\C(=O)c1ccc(Cl)cc1)NCc1ccc2c(c1)OCO2
(67) COc1ccc2nc(N3CCC(C)CC3)c(C#N)cc2c1
(68) CCOCCCNC(=O)CNC(=S)N(Cc1ccccc1F)C1CCCCC1

compound no.,61,62,63,64,65,66,67,68
DT40 TDP1 CPT,4%,-22%,-5%,-16%,16%,8%,?,-3%
N370S GC mod,0%,-2%,-2%,-1%,8%,5%,-2%,5%
